# Screens (PubChem BioAssay)
# hNpr1 antagonist = antagonists of human natriuretic peptide receptor Npr1; AID 1347048; Potency, µM (titrated, usually from 46.3 µM), for inactives: at the highest dose activity change, negative = inhibition, usual class: inhibitors; hit rate 1.6% among 76,000; HEK293 hNpr1 GloSensor cGMP, ANP-stimulated luminescence; P16066; active = well fitted inhibition curve with a large enough effect; inconclusive = small, poorly fitted or top-dose-only effect; inactive = no such curve, though single readings can be large or run the other way;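 also: nearly all actives have a fitted effect of over 60% in size; nearly all hits also lower the signal before the agonist is added; a reference antagonist and vehicle were the controls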
# Target sequence (P16066 whole entry, looked up): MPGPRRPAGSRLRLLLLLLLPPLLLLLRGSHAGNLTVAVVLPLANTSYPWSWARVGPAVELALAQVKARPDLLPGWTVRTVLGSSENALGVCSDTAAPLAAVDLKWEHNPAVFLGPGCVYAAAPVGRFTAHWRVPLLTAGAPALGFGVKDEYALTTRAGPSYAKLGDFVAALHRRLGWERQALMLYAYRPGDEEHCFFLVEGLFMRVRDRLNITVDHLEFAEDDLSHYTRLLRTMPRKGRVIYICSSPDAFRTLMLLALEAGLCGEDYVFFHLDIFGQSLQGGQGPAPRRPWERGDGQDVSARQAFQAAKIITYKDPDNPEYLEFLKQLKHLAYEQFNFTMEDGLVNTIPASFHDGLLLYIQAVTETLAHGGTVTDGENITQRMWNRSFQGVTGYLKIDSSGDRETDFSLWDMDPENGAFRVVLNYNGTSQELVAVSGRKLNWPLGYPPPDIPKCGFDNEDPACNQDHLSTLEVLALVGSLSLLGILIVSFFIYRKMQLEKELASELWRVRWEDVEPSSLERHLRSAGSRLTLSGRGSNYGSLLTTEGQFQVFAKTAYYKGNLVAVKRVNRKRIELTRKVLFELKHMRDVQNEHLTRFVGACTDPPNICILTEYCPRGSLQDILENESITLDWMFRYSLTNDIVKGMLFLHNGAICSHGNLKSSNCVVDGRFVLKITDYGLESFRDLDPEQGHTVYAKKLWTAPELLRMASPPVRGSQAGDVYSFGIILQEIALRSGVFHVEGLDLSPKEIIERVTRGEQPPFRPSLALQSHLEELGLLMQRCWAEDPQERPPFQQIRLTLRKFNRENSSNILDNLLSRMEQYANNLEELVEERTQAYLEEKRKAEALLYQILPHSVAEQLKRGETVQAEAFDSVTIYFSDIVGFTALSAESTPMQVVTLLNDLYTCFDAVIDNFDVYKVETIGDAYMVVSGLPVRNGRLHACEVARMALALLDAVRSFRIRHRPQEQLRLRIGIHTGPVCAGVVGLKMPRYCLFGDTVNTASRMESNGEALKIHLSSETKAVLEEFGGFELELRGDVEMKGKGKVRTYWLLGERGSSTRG
#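 HEK293 cells stably expressing human Npr1 and cGMP GloSensor pGS-40F, loaded 2 h with 2% GloSensor reagent, given compound 30 min at room temperature. Luminescence read before and 20 min after 0.1 nM hNppA.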
# * marks the source's active call; other numbers are inactive results; ? = inconclusive; [ ] = another dose, or the depositor's remark. % is scaled to controls: 0 for no effect and ±100 for the full control effect; potency is read from the fitted curve at half-maximal effect.
Molecule,hNpr1 antagonist
O=C(NC1CCCCC1)O[C@@H]1CO[C@H]2[C@@H]1OC[C@@H]2n1nnnc1Sc1ccccc1,-11%[70.6 µM]
CN(C)C[C@@H]1CN(c2ncccn2)C[C@H]1NC(=O)CCCc1ccccc1,1%
CCCOc1cccc(-c2nc(C(=O)NCC)cs2)c1,-18%
COc1cc2nc(-c3cc4c(c(OC)c3)OCCNC4)cc(C)c2cc1OC,3%
Cc1ccc(CN(C(=O)c2ccco2)c2ccc(CC(=O)N3CCCC3)cc2)cc1,2%
O=C(C1CC12CCCC2)N1CCc2onc(-c3cccc(F)c3)c2C1 (configuration not stated),-7%
O=C(N[C@@H]1CCC[C@@H]1C(=O)NCC1CCCCC1)c1ccncc1,8%
COc1ccc(OC)c(-c2ncc3c(n2)OCCN(c2cccc(C(F)(F)F)c2)C3=O)c1,-9%
Cc1cc(C)c(NC(=O)Cn2nc3n(c2=O)CCCC3)c(C)c1,-3%
COCC1CCCCN1c1ccc(C(=O)NCCCc2ccccn2)cn1 (configuration not stated),6%

# A few values from above.
# Result for COCC1CCCCN1c1ccc(C(=O)NCCCc2ccccn2)cn1 (configuration not stated) in hNpr1 antagonist: 6%
# Result for CN(C)C[C@@H]1CN(c2ncccn2)C[C@H]1NC(=O)CCCc1ccccc1 in hNpr1 antagonist: 1%

# Next compounds:
Molecule,hNpr1 antagonist
CCCc1noc(-c2cn(C3CCN(C(=O)c4ccc(C)cc4)CC3)nn2)n1,?
CC1=NOC2(CCN(C(=O)c3ccccc3)C2)C1 (configuration not stated),7%[70.6 µM]
CCc1ccc(C(=O)Nc2ccc(-c3nnc4n3CCCC4)cc2)cc1,-2%
Cc1noc(C)c1S(=O)(=O)N1CCC(CO)(CCCc2ccccc2)CC1,4%
CN1C(=O)CC(C(=O)O)C12CCN(Cc1cnc3c(C(=O)O)cnn3c1)CC2 (configuration not stated),1%
CCC(NC(=O)C1CCN(C(=O)C2CCC2)CC1)c1nc(C)c(C)s1 (configuration not stated),4%
Cc1nc(C)c(C(=O)N2CCC3(CC2)CC(N2CCCCC2)CCO3)s1 (configuration not stated),2%
O=C(NC1CCN(C(=O)N2CC3CC(C2)[C@H]2CCCC(=O)N2C3)CC1)C1CCOCC1 (some centres not stated),5%
Cc1ccsc1C(=O)N1CCC(c2nc(C3CCOCC3)no2)C1 (configuration not stated),3%
COc1ccc(-c2noc(-c3ncn4c3COC(c3ccc(F)cc3)C4)n2)c(OC)c1 (configuration not stated),2%
O=C(Nc1ccc2c(N3CCCC3)ncnc2c1)c1ccc(Cl)cc1,-8%
Cc1cccc(CN2CCCCCCNC(=O)CC2)c1,5%
O=C(CCc1conc1-c1ccccc1F)NCc1cc(F)cc(F)c1,-4%
COC(=O)N1CCCCC(NC(=O)CCCc2nc(-c3ccccc3C)no2)C1 (configuration not stated),13µM*
Cc1noc(C)c1[S+](=O)([O-])N1CCN(c2nc3ncccc3o2)CC1,8%
O=C(NCC1(COc2cnccn2)C[C@@H](O)[C@@H](O)C1)C1CC1 (some centres not stated),16%[70.6 µM]
CCc1nc(NC(=O)C2CC(=O)N(c3n[nH]c4cccc(F)c34)C2)sc1C (configuration not stated),1%
CC(C)Oc1ccccc1CN1CC[C@@H]2CN(S(C)(=O)=O)[C@@H]2C1,0%
O=C(Nc1nnc(C2CC2)s1)C1CC(=O)N(c2n[nH]c3cccc(F)c23)C1 (configuration not stated),-6%
CSc1ccc2cc(CN3CCCC(O)C3)c(-c3ccc(Cl)cc3)nc2c1 (configuration not stated),-3%
COc1ccc2nc(C[C@@H]3C[C@@H](C(C)C)[C@H](CN(Cc4ccccc4F)Cc4ccccc4F)C=C3C)[nH]c2c1,1%
CS(=O)(=O)N1CCC(OC2CCN(C(=O)Nc3c(F)cccc3F)CC2)CC1,5%
O=C(Cn1nc2c(cc1=O)CCCC2)NCc1nc2ccccc2[nH]1,1%
C=CCNC(=O)C1CC(c2ccc(F)cc2)=NO1 (configuration not stated),-18%
Cc1ccc(C(=O)N[C@H]2C[C@@H](c3nc(-c4ccc(C)cc4)no3)N(C)C2)cc1,2%[70.6 µM]
O=C(NC[C@H]1COCc2nc3cc(C(F)(F)F)ccc3n21)c1ccccn1,-18%[70.6 µM]
COc1ncccc1-c1nc(-c2c(C)noc2C)cc2c1cc(-c1ccccc1)n2C,-24%[70.6 µM]
O=C(Nc1cccc(Cl)c1)N1CCOC(CN(CC2CC2)C(=O)c2cccc(F)c2)C1 (configuration not stated),-16%
O=C(c1cn[nH]c1)N1CCC(c2nc(CCOCC3CCCC3)no2)C1 (configuration not stated),2%
COCCNC(=O)[C@H]1C[C@H](Oc2ccccc2)CN1S(=O)(=O)c1ccc(F)cc1,-5%
COc1ccc(C(=O)N2CCOc3ccc(CCC(N)=O)cc3C2)cc1F,8%
CN(C)C(=O)c1cccnc1OC1CCN(C(=O)c2ccc(OC(F)(F)F)cc2)C1 (configuration not stated),-7%
CO[C@H]1C(=O)N(C(C)C)[C@H]1C1CCN(C(=O)Cc2ccncc2)CC1,-2%
O=C(NCc1ccncc1)C1CN(S(=O)(=O)c2cccnc2)CC12CCCCC2 (configuration not stated),4%
CNC(=O)c1cc(-c2ccc(F)cc2OC)cc2c1OCCN2Cc1cccnc1,-6%[70.6 µM]
COc1ccc(C(=O)NCCn2ccn3nc(-c4cccc(OC)c4)cc3c2=O)cc1,-24%
COc1cc(C(=O)NC2CCCc3c2[nH]c2c(Cl)cccc32)cc(OC)c1OC (configuration not stated),-13%
Oc1ccccc1CN1CCC(O)(c2csc(CN3CCc4ccccc4C3)n2)CC1,-14%
Cc1ccc(C(=O)N2CCCC(n3cc(-c4nc(C5CC5)no4)nn3)C2)s1 (configuration not stated),-8%
COCCC(=O)N[C@H]1CC[C@]2(C)CC[C@@H](C(C)C(=O)NC3CC3)[C@H](O)[C@H]2[C@@H]1C (some centres not stated),3%[70.6 µM]
Cc1ccc(NC(=O)c2ccc3c(c2)C(O)CCCCCN3C)cc1 (configuration not stated),2%
COc1cc(OC)cc(C(=O)N2CCCC3(C2)Nc2cccnc2NC3=NC2CCCC2)c1 (configuration not stated),0%
CCc1ccc(N2CC(c3noc(-c4cccc(OC)c4OC)n3)CC2=O)cc1 (configuration not stated),3%
COCC1CN(C(C)=O)CC12CCN(C(=O)c1ccc(C)c(F)c1)CC2 (configuration not stated),-1%
COC(=O)c1cc2n(n1)CCCN(C(=O)C1CCCCn3nnnc31)C2 (configuration not stated),0%
CCOc1cc(=O)n2c(c1C(=O)NC1CCN(Cc3ccccc3)CC1)CCCCC2,1%
COc1ccc(Cl)cc1NC(=O)Cn1c(N2CCOCC2)nc(C)cc1=O,-5%
CC(=O)Nc1ccc(CN2CCC3(CC2)NC(=O)c2ccccc2O3)cc1,-5%
Cc1ccccc1CNC[C@H]1O[C@@H]2C[C@@H](CC(=O)NCc3nccn3C)O[C@@H]2[C@@H]1O,-2%[70.6 µM]
CN1CC(c2ccccc2)CC2(CCN(C(=O)CCS(C)(=O)=O)CC2)C1 (configuration not stated),5%

# Next section
Molecule,hNpr1 antagonist
Cc1cccc(OCC(=O)N2CCC3(CC2)NC(=O)N(Cc2ccc(F)cc2)C3=O)c1,-22%
Nc1ccsc1C(=O)N1CCC2(CCC(=O)N(CC3CCCO3)C2)CC1 (configuration not stated),7%
CNC(=O)N1CC(c2noc(C3CCCN3C(=O)c3ccc(C)s3)n2)C1 (configuration not stated),2%
CCc1ccc(C(=O)N2[C@@H]3CC[C@H]2CC(NC(=O)c2cnc(C)cn2)C3)cc1 (some centres not stated),-1%
CC(=O)N1CCN(Cc2nnc(C(=O)N3CCC[C@@H]3c3cccc(F)c3)n2-c2ccccc2)CC1,4%
O=C(O)Cn1ccc2cc(OCC3CCN(C(=O)Cc4ccccc4)CC3)cnc21,-1%[70.6 µM]
COCCN1C[C@H]2CN(C(=O)c3ccccc3OC)CCN2C1=O,1%[70.6 µM]
Cc1nonc1CC(=O)N1CCc2ccc(S(=O)(=O)NCCC(C)O)cc2C1 (configuration not stated),-1%
CC(=O)N1CCN(c2cc(-c3ccccc3)nc3c(C)noc23)CC1,1%[70.6 µM]
Cc1ccc(N2CCC(NC(=O)Cc3ccccc3C)C2=O)cc1 (configuration not stated),-5%

# 7 structures already listed, ordered by count of non-hydrogen atoms, low to high:
Molecule,hNpr1 antagonist
COCCN1C[C@H]2CN(C(=O)c3ccccc3OC)CCN2C1=O,1%[70.6 µM]
CC(=O)N1CCN(c2cc(-c3ccccc3)nc3c(C)noc23)CC1,1%[70.6 µM]
CNC(=O)N1CC(c2noc(C3CCCN3C(=O)c3ccc(C)s3)n2)C1 (configuration not stated),2%
CCc1ccc(C(=O)N2[C@@H]3CC[C@H]2CC(NC(=O)c2cnc(C)cn2)C3)cc1 (some centres not stated),-1%
O=C(O)Cn1ccc2cc(OCC3CCN(C(=O)Cc4ccccc4)CC3)cnc21,-1%[70.6 µM]
Cc1cccc(OCC(=O)N2CCC3(CC2)NC(=O)N(Cc2ccc(F)cc2)C3=O)c1,-22%
CC(=O)N1CCN(Cc2nnc(C(=O)N3CCC[C@@H]3c3cccc(F)c3)n2-c2ccccc2)CC1,4%

# Next section
Molecule,hNpr1 antagonist
OC[C@@H]1CNC[C@H]1C1CCN(Cc2ccc(Br)s2)CC1,6%
COc1ccccc1-c1nnc([C@H]2CCN(Cc3cccnc3)C2)o1,-11%[70.6 µM]
Cc1cccc(-n2nc(C)c(CCC(=O)N3CCSCC3)c2Oc2ccc(F)cc2F)c1,-14%
O=C(O)c1ccc(CN2CCC(c3cc(N4CCCC4)ncn3)CC2)cc1,2%
O=C(c1cccnc1)N1CCC(Oc2cccnc2)C1 (configuration not stated),2%
Cc1ccc(NC(=O)N2CC3CC(C2)[C@H]2CCCC(=O)N2C3)cc1 (some centres not stated),-3%
Cc1ccc(S(=O)(=O)N2C3CCCC2CC(=O)C3)cc1,-1%[70.6 µM]
Cc1noc([C@@H]2Cc3nc[nH]c3CN2C(=O)Nc2ccccc2)n1,-1%[70.6 µM]
COc1ccc(-c2ccc(Cn3ccnc3)cn2)c2ccc(C)nc12,0%
O=C(NCCc1ccccc1)C1Cn2cccc2C(=O)N1Cc1ccccc1 (configuration not stated),-2%
O=C1NCCCCCCN(C(=O)CC2CCCCC2)[C@H]2C[C@H](c3nc(-c4cccnc4)no3)C[C@@H]12,0%
CCC(=O)N1CCc2c(C(=O)Nc3cc(OC)cc(OC)c3)cccc21,-1%
CCn1cc(CN2CCCC(c3nc4c(C)cccc4[nH]3)C2)cc1C#N (configuration not stated),-27%
Cc1ncccc1C(=O)NC1CCN(C(=O)N2CC3CC(C2)[C@H]2CCCC(=O)N2C3)CC1 (some centres not stated),-3%
CCc1n[nH]c(CC2CCN(C(=O)Cc3cccc(F)c3)CC2)n1,1%
O=C(N[C@H](c1cccs1)C1CC(O)C1)c1cccc(-n2cccn2)c1 (some centres not stated),0%
O=C1[C@@H]2C[C@@H](CN2C(=O)c2ccccc2F)Oc2ccccc2N1Cc1ccccc1,0%[70.6 µM]
N#Cc1cccc(CN2CCOC[C@H]2c2ncc(-c3ccc(F)cc3)[nH]2)c1,0%[70.6 µM]
Cc1cccc(C(=O)N2CCCC(Cc3nncn3C)C2)c1 (configuration not stated),-2%
O=C(c1cccnc1)N1CCC2(CC1)C(=O)NN=C2c1ccncc1,-18%
Cc1cc(C(=O)N(CCC(=O)NCCC(C)C)CCC(C)C)c(C)o1,-16%
O=C1CC(C(=O)N2CCC(O)(c3cccnc3)CC2)CN1Cc1ccccn1 (configuration not stated),2%
O=C(Cn1ccn2nc(-c3ccccc3)c(CO)c2c1=O)Nc1cc(F)cc(F)c1,-17%
O=C(NCC1CCCO1)c1cc2n(n1)CC(c1ccc(Br)cc1)OC2 (configuration not stated),?
Cc1ccc(-c2noc([C@@H]3Cc4nc[nH]c4CN3C(=O)CCCC(=O)O)n2)cc1,-3%[70.6 µM]
CN(Cc1ccsc1)C(=O)C1CCCN(C2CCN(C(=O)C3CC3)CC2)C1 (configuration not stated),10%
O=C(NCc1cccnc1)C1CCC(=O)N(Cc2cccc(C(F)(F)F)c2)C1 (configuration not stated),8%
COc1cccc(CNC(=O)C2(c3ccc(NC(C)=O)cc3)CCCCC2)c1,0%
CN(Cc1cc(C(C)(C)C)n[nH]1)C(=O)[C@H]1CCC[C@@H](O)C1,4%
COc1ccc(NC(=O)N2CCC(Oc3ncccc3C(=O)N3CCOCC3)C2)cc1 (configuration not stated),5%
Cc1noc(-c2ccc(OC(F)(F)F)cc2)c1C(=O)NCCCc1ccccc1,2%
CCCS(=O)(=O)N1CCC2(CC1)c1[nH]c3ccccc3c1CCN2C,-16%
Cc1ccccc1CNC[C@H]1Cn2cc(-c3ccccc3)nc2CO1,4%[70.6 µM]
COc1cccc(S(=O)(=O)N2CCC(Cc3nncn3C)CC2)c1,-6%
CCN(CC)C(=O)[C@@H]1CCC[C@@H](NC(=O)c2ccc(Cl)cc2)CN(C)C(=O)C1,6%[70.6 µM]
Cc1cccc(CN2CCCCCCNC(=O)[C@@H]3CCC[C@@H]32)c1,-14%
CCN(CC)C(=O)C(C)[C@@H]1CC[C@@]2(C)Cc3sc(NC(=O)C4CC4)nc3[C@@H](C)[C@@H]2[C@H]1O (some centres not stated),-7%
CC1(COc2ccc3[nH]ccc3c2)COc2ccc(C(=O)NCc3cccs3)cc2N1 (configuration not stated),3%[70.6 µM]

# The list is partial, so the mix of outcomes need not match the whole.
